Ecoli rRNA inh – inhibits bacterial ribosomal RNA function over humanized ribosomes. hit rate 1.6% among 350,000. GFP signal change (wild-type ribosome), % (test concentration not listed). AID 720706. E. coli WT GFP vs humanized-ribosome RFP mutants, fluorescence, 24 h; stronger effect = lower value; DMSO median 0, no signal -100;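 active means significant combined selectivity score with lowered wild-type GFP, culture density cut under 30%, mutant RFP and density less affected; inactive means any of these conditions unmet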; further: one replicate is shown; some compounds called inactive have numbers as strong as hits
T cruzi inh – blocks replication of Trypanosoma cruzi; T. cruzi beta-gal in NIH3T3, luminescence, 90 h; inhibition, % (no concentration beside the values); hit rate 1.4% among 300,000;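 active means mean inhibition across valid replicates above about 55%, limit read from the data; inconclusive means mean below that limit but half or more replicates reach it; inactive means mean below it, under half of replicates reach it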;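 further: signal also drops with host cell toxicity which is not excluded here; 0% = plate median of DMSO wells and 100% = zero luminescence signal; higher percent means less beta-gal luminescence so fewer parasites; stock transfer was 50 nL into about 50 µL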
RanGTP-Imp inh – disruptors of Ran-importin-beta complex formation – biochemical, FRET, CFP-Ran, YFP-importin-beta, homogeneous, primary screen. inhibition, % (concentration not given with the values). cell-free CFP-Ran/YFP-importin-beta FRET ratio. hit rate 1.1% among 300,000;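 active means most replicates above 15%; inconclusive means exactly half above 15%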;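 further: 0% = DMSO wells and 100% = Ran loaded with GDP instead of GTP; wells of about 40 µL received 100 nL stock; the first replicate is given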
A1 inh – inhibitors of the anti-apoptotic protein A1, read as caspase activation; MEF A1-2A-BIM cells, Caspase-Glo 3/7 luminescence, 3 h; percent of clofoctol response, vehicle zero; caspase activation, % (test concentration not listed); hit rate 0.066% among 330,000;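 active means over half of replicate activation scores above 10%, or exactly half above 10 with the replicate mean above 10; inconclusive means replicate mean below 10 yet half the replicates above 10; inactive means over half of replicates below 10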;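 further: wells of about 30 µL received 50 nL stock; many hits fall short of the cut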
Vif TR-FRET – HIV-1 Vif–A3G interaction blockers – biochemical, TR-FRET, GST-Vif 1-94, biotin-A3G peptide, dose response retest, primary screen (AID 1117319) | TR-FRET GST-Vif / biotin-A3G peptide binding; higher % means a stronger effect; test concentration not given here; strong numbers were not always called active | inhibition, %; hits with a dose series show IC50 in µM | hit rate 0.57% among 260,000;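 active means above the screen mean plus three standard deviations and confirmed in dose response; inconclusive means results disagree or hit not tested in dose response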;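 further: Vif residues 1-94 fused to GST binding biotinylated APOBEC3G peptide 110-148; 0% = full assay without inhibitor and 100% = GST in place of GST-Vif; retest series ran down from 100 µM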
Beta apoptosis – blocks beta cell apoptosis | INS-1E cytokine-induced death, ATP luminescence, 48 h; percent of positive-control rescue, neutral wells zero | hit rate 0.8% among 300,000 | AID 435005 | protection from apoptosis, % (test concentration not listed);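 active means all replicates at 75% or more, or half of them and the mean; inconclusive means half reach 75% but not the mean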;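 further: 0% = cytokine-treated negative control wells and 100% = positive control rescue; higher means more ATP so stronger rescue from cytokine killing; wells of about 40 µL received 100 nL stock; the first replicate is given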
Calb FLC – affects C. albicans growth with fluconazole; C. albicans CaCi-2 (fluconazole-resistant clinical isolate) + fluconazole, Alamar Blue growth, 48 h; growth inhibition, % (no concentration beside the values); hit rate 0.57% among 300,000; AID 1979;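 active means most replicates above 75%; inconclusive means exactly half above 75%; inactive means most below 75%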;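 further: all wells also contain fluconazole at 8 µg/ml as a sub-toxic cotreatment; 0% = median of DMSO wells and 100% = median of geldanamycin control wells; wells of about 8 µL received 7.5 nL stock; the first replicate is given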
AF4-AF9 inh – MLL-AF4/AF9 protein interaction inhibition. AlphaScreen, biotin-AF4 peptide binding to FLAG-AF9. inhibition, % at 10 µM. hit rate 0.47% among 350,000;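 active means every replicate reaching a set inhibition limit, whatever the replicate mean, cut at about 25% in these data; inconclusive means mean inhibition reaches that limit but some replicates miss it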;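 further: 0% = plate neutral control median and 100% = total signal loss; the record names both 10 and 1 µM as test concentration; the first replicate is given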
Target sequence (P42568 whole entry, looked up): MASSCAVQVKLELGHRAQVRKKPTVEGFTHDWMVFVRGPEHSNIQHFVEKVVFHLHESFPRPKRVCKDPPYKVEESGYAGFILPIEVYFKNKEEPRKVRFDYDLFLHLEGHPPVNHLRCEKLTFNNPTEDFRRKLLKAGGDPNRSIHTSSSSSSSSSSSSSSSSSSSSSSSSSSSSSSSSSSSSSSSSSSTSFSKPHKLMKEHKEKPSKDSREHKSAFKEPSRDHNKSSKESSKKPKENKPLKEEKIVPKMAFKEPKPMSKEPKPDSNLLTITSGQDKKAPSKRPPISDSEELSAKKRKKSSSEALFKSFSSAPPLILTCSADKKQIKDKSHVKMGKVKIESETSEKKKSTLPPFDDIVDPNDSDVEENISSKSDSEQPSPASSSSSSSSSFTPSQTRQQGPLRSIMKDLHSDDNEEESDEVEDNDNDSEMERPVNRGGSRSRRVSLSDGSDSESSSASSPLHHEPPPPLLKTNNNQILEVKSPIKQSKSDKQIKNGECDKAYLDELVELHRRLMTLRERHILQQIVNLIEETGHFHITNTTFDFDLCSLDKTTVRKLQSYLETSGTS
Ecoli rRNA inh OD600 – also measured in Ecoli rRNA inh; calls as there; OD600 change, %; measured here: OD600 growth;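 optical density of the mix in the first replicate; 0 = DMSO median and -100 = no signal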
Ecoli rRNA inh RFP – recorded beside Ecoli rRNA inh, whose call it bears; RFP signal change, %; measured here: RFP humanized mutant strains;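 first replicate; 0 = DMSO median and -100 = no signal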
* hit, by the source's call; u = inconclusive; x = not tested or not shown.

SMILES | Ecoli rRNA inh | Ecoli rRNA inh OD600 | Ecoli rRNA inh RFP | T cruzi inh | RanGTP-Imp inh | A1 inh | Vif TR-FRET | Beta apoptosis | Calb FLC | AF4-AF9 inh
Cc1nn(-c2ccccc2)c(Cl)c1/C=C1\SC(=S)N(CCCCCC(=O)O)C1=O | -32* | -23* | 1.1* | 4 | -6.0 | -0.1 | 24% | -7 | u | -32
Cc1cc(-n2c(C)cc(C(=O)CSc3nnnn3-c3ccc(Cl)cc3)c2C)no1 | x | x | x | 27 | 3.1 | x | u | x | 1 | x
CCOC(=O)C1CCN(C/C=C/c2ccccc2[N+](=O)[O-])CC1 | 2 | 7 | -0.7 | -8 | 3.3 | 0.0 | 9% | -14 | -14 | -13
CC(=O)c1cccc(NC(=O)C2CCN(S(=O)(=O)c3ccccc3)CC2)c1 | x | x | x | -3 | u | 0.1 | 10% | 3 | -3 | x
C=C(C)n1c(=O)n(Cc2ccc(C)cc2)c2ccccc21 | -15 | -17 | 2.8 | 8 | 6.6 | 0.4 | -3% | -9 | -1 | 0.2
COc1ccc(S(=O)(=O)CCC(=O)NCCc2ccc(C)cc2)cc1 | x | x | x | -5 | -0.5 | 0.7 | 29% | -14 | 4 | x
CSc1ccc(CN(C)CC(=O)N(C)CC(=O)Nc2ccccc2Br)cc1 | -1 | 0 | 3.7 | x | x | 0.9 | -2% | 1 | x | -0.9
CN=C(Nc1cccc(Cl)c1)SC1CC(=O)N(c2ccc(OC)cc2)C1=O (stereo unspecified) | -4 | 1 | 4.0 | 19 | -0.7 | 0.2 | x | 3 | -36 | -0.9
COc1ccc(C2N=C(N)N=C(N)N2c2ccccc2OC)cc1OC (stereo unspecified) | x | x | x | 2 | -12 | 0.1 | -3% | 3 | u | x
Cc1ccc(OC(C)C(=O)N2CCCc3ccccc32)cc1 (stereo unspecified) | x | x | x | -12 | u | 0.0 | 2% | 2 | 5 | x
O=C1Nc2ccccc2/C1=C/c1ccccc1F | -29* | -5.1* | 1.4* | 3 | -3.2 | 0.9 | -5% | 3 | -13 | -4.9
CC(=O)Nc1ccc(-c2cc(NC(C)=O)n(-c3ccccc3)n2)cc1 | x | x | x | -16 | -2.4 | 0.5 | u | 3 | 5 | x
Cc1ccc(SCc2ccc(C(=O)N3CCCCC3)cc2)cc1 | -40 | -69 | -5.0 | 3 | 5.5 | -1.5 | -5% | -9 | 15 | -1.6
Cc1cccc(N(CC(=O)NCc2ccco2)C(=O)CCC(=O)Nc2ccccn2)c1C | -4 | -8 | 0.8 | 11 | 2.8 | 1.0 | x | -15 | -1 | 3.4
COc1ccc(/C=C2\N=C(C)OC2=O)cc1[N+](=O)[O-] | 16 | 5 | -1.3 | -6 | -0.6 | 1.7 | x | 5 | -5 | -21
C=CCn1c(SCC(=O)N2CCOCC2)nc(O)c(Cc2ccccc2)c1=O | x | x | x | -6 | 3.4 | 0.1 | 6% | 0 | -2 | x
COc1ccc(S(=O)(=O)N2CCc3ccccc32)cc1C(=O)NCCc1ccc(S(N)(=O)=O)cc1 | 4 | 13 | -0.4 | x | x | -0.6 | x | 2 | x | -8.1
Cc1sc2nc(CSc3nnc(Cc4cccs4)n3C3CCCCC3)[nH]c(=O)c2c1C | x | x | x | 13 | -3.7 | -0.7 | 2% | 2 | 13 | x
Cc1c(C(=O)NCC(C)(C)N2CCOCC2)oc2ccccc12 | -2 | 5 | -2.5 | x | x | 1.6 | 5% | -1 | x | -0.1
Cc1ccccc1S(=O)(=O)Cc1ccc(C(=O)NCc2cccs2)o1 | x | x | x | -3 | 2.1 | 0.4 | -1% | -5 | 9 | x
Clc1ccc(COc2ccccc2CNCc2cccnc2)cc1 | 8 | -4 | -0.8 | u | -0.3 | -0.2 | 1% | -4 | 32 | 5.5
CCOC(=O)c1c(NC(C)=O)sc(/C(C)=N/Nc2ccc(C(=O)O)cc2)c1C | -17* | -6.7* | 4.2* | 3 | -1.5 | 0.7 | -1% | 5 | -7 | 1.9
COc1ccc(NC(=O)C2CCN(S(C)(=O)=O)CC2)cc1 | 18 | 8 | 20 | -30 | -3.8 | -0.4 | 14% | -2 | -7 | 0.4
COc1ccc(/C=N/NS(=O)(=O)c2ccccc2)cc1OS(=O)(=O)c1ccccc1 | x | x | x | -1 | -2.9 | -1.0 | -5% | -4 | 5 | x
COc1ccc(C2Nc3ccccc3C(=O)N2NC(=O)c2ccccc2)cc1OC (stereo unspecified) | 1 | 3 | -1.6 | -5 | 0.7 | 0.6 | -1% | -2 | 5 | -1.5

Next part (two carried over from the part before).
SMILES | Ecoli rRNA inh | Ecoli rRNA inh OD600 | Ecoli rRNA inh RFP | T cruzi inh | RanGTP-Imp inh | A1 inh | Vif TR-FRET | Beta apoptosis | Calb FLC | AF4-AF9 inh
COc1ccc(/C=N/NS(=O)(=O)c2ccccc2)cc1OS(=O)(=O)c1ccccc1 | x | x | x | -1 | -2.9 | -1.0 | -5% | -4 | 5 | x
COc1ccc(C2Nc3ccccc3C(=O)N2NC(=O)c2ccccc2)cc1OC (stereo unspecified) | 1 | 3 | -1.6 | -5 | 0.7 | 0.6 | -1% | -2 | 5 | -1.5
O=C(/C=C/c1c(Cl)cccc1Cl)Nc1ccncc1 | x | x | x | 21 | -0.6 | -3.3 | -5% | 5 | -3 | x
CC(C)CC1Nc2ncnc(N3CCN(c4ccccc4)CC3)c2N(Cc2ccc(Cl)cc2)C1=O (stereo unspecified) | 7 | 7 | 28 | 36 | 1.9 | 0.7 | x | 2 | -2 | 7.8
O=C(Nc1nc2c(s1)CCCC2)c1ccc(N2C(=O)CCC2=O)cc1 | -5 | -8 | -2.4 | -5 | -2.7 | -3.2 | x | x | -3 | 1.7
Cc1ccc(-n2nnnc2-c2cccnc2)cc1 | -12 | 0 | -6.1 | -5 | 8.5 | -0.2 | -6% | -2 | 9 | -13
COc1ccc(C(=O)Nc2ccc3ccccc3c2)cc1OC | -2 | -11 | -5.6 | -5 | 1.7 | -4.9 | -6% | -3 | 9 | -0.5
CN1CCN(C(CNS(=O)(=O)c2ccc(Br)cc2)c2ccc3c(c2)OCO3)CC1 (stereo unspecified) | 11 | 11 | 1.5 | 14 | 1.5 | -0.7 | 2% | 0 | -10 | -20
CC1=NC(C)(C)Cc2c(C)cccc21 | 17 | 9 | 3.7 | 27 | 6.5 | -1.7 | 1% | -2 | 1 | 2.0
Cc1ccc(C(=O)NNC(=O)c2cccc(Br)c2)cc1 | 8 | 10 | 5.0 | -3 | 0.4 | -1.6 | -1% | 0 | 0 | -6.5
O=C(CCNC(=O)C1CCN(S(=O)(=O)c2ccccc2)CC1)NCc1ccccc1Cl | 1 | 5 | 3.6 | 13 | -8.9 | 1.5 | x | -2 | -2 | -5.5
Cc1ccc(F)cc1NC(=O)CN1C(=O)NC2(CCCc3ccccc32)C1=O (stereo unspecified) | -1 | 0 | -2.3 | -1 | 6.7 | 0.4 | 2% | -2 | -3 | -1.9
CN1CCN(C(=O)C2CCC(=O)N(CCc3cccc(F)c3)C2)CC1 (stereo unspecified) | 15 | 10 | 1.7 | -7 | 4.7 | 0.2 | 12% | 0 | -5 | -0.1
N/C(=N\O)c1ccc(N2CCN(c3ncccc3C(F)(F)F)CC2)nc1 | x | x | x | 22 | 1.5 | -1.1 | -3% | 0 | 15 | 3.3
CC(=O)Nc1ccc2nc(CN3CCN(CC=C(C)C)C(CCO)C3)ccc2c1 (stereo unspecified) | 16 | 11 | 1.2 | 8 | 2.4 | 1.2 | 12% | 0 | -12 | -1.4
COc1ccc(C(=O)NCCc2ccc(S(N)(=O)=O)cc2)cc1OC | x | x | x | 7 | -0.9 | 2.0 | 1% | 1 | -5 | x
COc1ccc(NS(=O)(=O)c2ccc(C)c(C(=O)NCCCN3CCCC3=O)c2)cc1 | 0 | -1 | -2.4 | x | x | -0.4 | -3% | 1 | x | 1.0
O=C(NC(=O)c1ccc(Cl)cc1)OC1CCCCC1 | x | x | x | -7 | 1.6 | 0.4 | -9% | 0 | -8 | x
O=C(Cc1nc2ccccc2[nH]1)N/N=C/c1ccccc1 | 1 | 12 | -1.2 | -17 | x | 0.5 | 15% | 0 | x | 4.2
Cc1ccc(N2CC(C(=O)N3CCC(C(=O)Nc4nncs4)CC3)CC2=O)cc1 (stereo unspecified) | 24 | 4 | 4.0 | 0 | -2.0 | 0.3 | x | -1 | -5 | -4.0
CC[C@@H](C)[C@@H](C(=O)N1CCN(C(=O)OC(C)(C)C)CC1)n1cc(CCCCNC(=O)OC(C)(C)C)nn1 | -17 | -20 | -0.7 | 1 | 1.7 | 0.5 | 6% | 5 | -12 | 2.0
O=C(CNC(=O)c1ccccc1F)OCC(=O)N1CCCc2ccccc21 | x | x | x | -18 | -1.7 | 1.9 | -7% | 3 | -11 | x
CCOC(=O)c1sc2nc(C)nc(SC(C)C(=O)N(C)c3ccccc3)c2c1C (stereo unspecified) | -4 | -8 | 4.0 | x | x | -0.2 | 0% | 1 | x | 1.6
CCOC(=O)NC(NCc1ccccc1)(C(F)(F)F)C(F)(F)F | 3 | 9 | -1.3 | 3 | 1.7 | -0.6 | x | -7 | -1 | 1.5
NS(=O)(=O)c1ccc(CCNC(=O)CCc2nc3ccccc3s2)cc1 | -1 | -13 | -6.9 | -3 | 2.8 | -0.7 | -7% | x | 0 | 1.5
CNCCOc1ccc(Cl)c(Cl)c1 | 2 | 1 | -1.2 | 9 | 1.8 | -0.3 | u | -9 | -5 | 0.4
O=C(O)c1cccc(Nc2cc(Cl)c3nonc3c2[N+](=O)[O-])c1 | -13 | 3 | 0.2 | -9 | -2.2 | -0.5 | x | -6 | 51 | -13
Cc1ccc(NC(=O)CN2CCCC2c2cccn2C)c(Br)c1 (stereo unspecified) | 2 | 9 | 3.2 | x | x | 1.3 | x | -3 | x | 11
CN(C)CCN1C(=O)c2oc3ccccc3c(=O)c2C1c1ccc(F)cc1 (stereo unspecified) | x | x | x | -6 | u | 1.2 | 24% | -1 | -1 | x

6 of the entries above in order of their number in Vif TR-FRET, falling:
canonical_smiles	Vif TR-FRET
CN(C)CCN1C(=O)c2oc3ccccc3c(=O)c2C1c1ccc(F)cc1 (stereo unspecified)	24%
COc1ccc(C(=O)NCCc2ccc(S(N)(=O)=O)cc2)cc1OC	1%
COc1ccc(NS(=O)(=O)c2ccc(C)c(C(=O)NCCCN3CCCC3=O)c2)cc1	-3%
O=C(/C=C/c1c(Cl)cccc1Cl)Nc1ccncc1	-5%
COc1ccc(C(=O)Nc2ccc3ccccc3c2)cc1OC	-6%
NS(=O)(=O)c1ccc(CCNC(=O)CCc2nc3ccccc3s2)cc1	-7%

Compound activity as filed in PubChem.

A portion of the library (hit frequency here may not be typical).
